From PubChem BioAssay
HIV Env fusion = HIV envelope-mediated fusion inhibition | inhibition, % at 12.3 µM | hit rate 1.1% among 360,000 | HeLa-JRFL Env/CEM21 cell fusion, luciferase | AID 651610;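 active = mean replicate inhibition score of at least 50 and every replicate individually at or above 50; inconclusive = only one of the two criteria met; inactive = mean below 50 and not all replicates reaching 50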;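 also: 0% = plate neutral controls and 100% = maraviroc near 300 nM; one replicate is shown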
MT1-MMP act inh = inhibitors of human MT1-MMP activation; hit rate 0.061% among 360,000; P50281; HT1080 RFP-PRO-GFP cells, GFP/RFP ratio fluorescence, overnight; percent of plate control window, DMSO zero; GFP/RFP ratio change, % at 20 µM;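 active = GFP/RFP ratio change of at least 30% with cell ATP level not reduced by more than half and red fluorescence within 50% of control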; also: strong numbers were not always called active
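system = RFP-PRO-GFP reporter HT1080 cells | dosing = 20 µM single dose, 1% DMSO | timing = overnight cell settling, then overnight compound exposure, 37 °C, 5% CO2 | read-out basis = GFP/RFP fluorescence ratio | controls = DMSO and RFP-L50D-GFP cell wells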
CSC inhib = blocks cancer stem cells; inhibition, % at 7.5 µM; cancer stem cell-like cells viability, luminescence; hit rate 1.1% among 300,000;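 active = mean at 75% or more and at least half the replicates too; inconclusive = mean and replicates disagree; tested in HMLE shEcad cells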;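 also: 0% = median of negative and 100% = median of positive control wells; the first replicate is given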
Rce1 inhib = blocks yeast Ras-converting enzyme; Q03530; yeast membranes, quenched prenylated peptide cleavage fluorescence; calls only; hit rate 0.27% among 290,000; AID 2563;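 active = fall in fluorescence gain of 50% or more versus controls, with final raw signal at or below 3038400; inconclusive = same 50% fall but final raw signal above 3038400; inactive = fall in fluorescence gain under 50%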;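 also: plate controls were neutral control wells for no effect and wells lacking membranes for full effect; tested at 10 µM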
eIF4H FP inh = inhibitors of RNA binding by human eIF4H; hit rate 0.94% among 290,000; eIF4H fluorescence polarization binding assay; inhibition, % at 35 µM;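 active = 50% or more with normal probe brightness, or confirmed in later tests; inconclusive = above 50% with abnormal brightness, or retests that disagree; inactive = below 50% or failed in later tests; about a fifth of its hits are not listed in these tables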;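 also: calls also rest on retests at 20 µM and on dose response follow-up; 0% = protein and probe with vehicle and 100% = probe without protein; strong numbers were not always called active; many hits fall short of the cut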
PABP polyA inh = blocks human PABP binding to poly(A) RNA; P11940; fluorescence polarization; inhibition, % at 35 µM; hit rate 1% among 290,000; AID 2014;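 active = 50% or more with normal probe brightness, or confirmed in later tests; inconclusive = above 50% with abnormal brightness, or retests that disagree; inactive = below 50% or failed in later tests; about a fifth of its hits are not listed in these tables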;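 also: calls also rest on retests at 20 µM and on dose response follow-up; controls were probe without protein and protein plus probe with vehicle; some compounds called inactive have numbers as strong as hits; many hits fall short of the cut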
Target sequence (P11940 whole entry, looked up): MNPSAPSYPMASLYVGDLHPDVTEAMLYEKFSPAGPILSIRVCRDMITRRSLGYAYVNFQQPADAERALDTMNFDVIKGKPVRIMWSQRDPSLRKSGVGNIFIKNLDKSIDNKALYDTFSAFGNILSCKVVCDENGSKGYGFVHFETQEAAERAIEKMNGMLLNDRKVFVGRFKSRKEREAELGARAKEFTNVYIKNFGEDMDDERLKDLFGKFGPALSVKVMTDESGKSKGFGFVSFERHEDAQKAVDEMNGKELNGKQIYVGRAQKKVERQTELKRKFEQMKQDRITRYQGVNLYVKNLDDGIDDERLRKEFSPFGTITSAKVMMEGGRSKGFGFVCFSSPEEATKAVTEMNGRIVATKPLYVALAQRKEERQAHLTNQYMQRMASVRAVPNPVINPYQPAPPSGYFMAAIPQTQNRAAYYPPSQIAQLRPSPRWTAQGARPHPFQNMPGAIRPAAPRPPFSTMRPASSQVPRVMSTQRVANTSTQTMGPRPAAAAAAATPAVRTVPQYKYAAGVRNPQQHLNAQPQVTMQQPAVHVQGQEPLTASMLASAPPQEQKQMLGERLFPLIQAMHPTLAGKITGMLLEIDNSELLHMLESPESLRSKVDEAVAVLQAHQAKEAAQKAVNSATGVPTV
Yeast UUG start = modulators of start codon recognition fidelity in yeast; hit rate 0.13% among 350,000; activity score, % at 18.7 µM; AID 602363; S. cerevisiae UUG-firefly luciferase reporter, luminescence/redox ratio;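 active = replicate mean at a twofold rise or more, about +100% in these data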;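 also: firefly luciferase made from a UUG start codon reports start codon fidelity; reporter light over untreated wells divided by growth signal over untreated wells; some hits fall short of that in this replicate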
eIF4H FP inh retest = recorded beside eIF4H FP inh, whose call it bears; inhibition, %; compound at 20 µM; confirmation average;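 mean of two retest wells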
PABP polyA inh retest = also measured in PABP polyA inh; calls as there; inhibition, %; compound at 20 µM; confirmation repeats;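 mean of two retest wells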
MT1-MMP act inh RFP = second read-out of MT1-MMP act inh, no call of its own (marks repeat the call); RFP signal change, %; measured here: RFP expression control read;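 0 = vehicle wells; hits needed this value within 50% of zero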
Active calls of the source: *; i = inactive; u = inconclusive; x = not tested or not shown; & = joins results of further samples.

SMILES | HIV Env fusion | MT1-MMP act inh | MT1-MMP act inh RFP | CSC inhib | Rce1 inhib | eIF4H FP inh | PABP polyA inh | Yeast UUG start | others
Cc1ccc(-c2nnn(CC(=O)N(CC(=O)NC3CCCC3)c3ccccc3F)n2)o1 | -4 | 3 | 0 | x | i | 0 | 0 | -4
Cc1[nH]n(-c2ccccc2)c(=O)c1/C=N/N(c1ccccc1)c1ccccc1 | -2 | 1 | 1 | 43 | i | 6 | 6 | x
O=C(NC(Cc1ccccc1)C(=O)O)/C(=C\c1ccc(Br)cc1)NC(=O)c1ccc(Br)o1 (stereo not drawn) | -18 | -3 | 0 | 3 | i | -3 | 0 | -18
CC1CCC(C#N)(N(C)C(=O)CSc2nnc(C3CC3)n2C2CC2)CC1 (stereo not drawn) | -4 | -1 | 1 | x | x | x | x | -8
NNC(=O)CSc1nc(-c2ccccc2)cn1-c1ccccc1 | -2 | 5 | -7 | 10 | i | -1 | 5 | x
CCN(CC)C(=O)CSc1nnc(-c2ccco2)n1Cc1ccco1 | -14 | 1 | -1 | x | i | 8 | -3 | -10
Cc1cccn2c(NCc3ccc4c(c3)OCO4)c(-c3ccc(O)cc3)nc12 | 39 | -2 | 0 | -6 | i | -2 | 28 | x
CCOc1ccc(CNC(=O)C2CCN(S(=O)(=O)CC)CC2)cc1OC | x | 2 | 3 | 3 | i | -8 | 6 | -13
COc1cc(CN2CCC(Cc3ccccc3)CC2)cc([N+](=O)[O-])c1O | 2 | 3 | 2 | 1 | i | 6 | 8 | 2
CN(C(=O)c1cccc(NC(=O)Cc2cccc(NC(=O)C3CCCN(C(=O)C4CCCC4)C3)c2)c1)C1CC1 (stereo not drawn) | 21 | 3 | -5 | x | x | x | x | 5
CCOc1ccccc1Nc1cc(C)nc2nnnn12 | 7 | 3 | 2 | -18 | i | 1 | 2 | x
Cc1ccc(-c2n[nH]c(=S)n2/N=C/c2ccc(C)o2)cc1 | -5 | 2 | 8 | -7 | i | -14 | -19 | -25
CCOc1ccccc1C(=O)NCC(=O)N(C)Cc1cccnc1 | 7 | 3 | -1 | -10 | x | -4 | 12 | 3
CCCNC(=O)C1CCN(S(=O)(=O)c2ccc(-c3nn[nH]n3)cc2)CC1 | x | 0 | 1 | 8 | i | -12 | 10 | -12
CCC(=O)Nc1c(-c2ccc3ccccc3c2)nc2ccccn12 | -18 | 7 | -4 | -5 | i | -6 | -11 | -9
C/C(Cn1cnc([N+](=O)[O-])n1)=N\NC(=O)c1cccnc1 | -5 | 2 | -1 | -19 | i | 7 | 4 | x
CCC(C)(C)c1ccc(OCCCC[n+]2ccc(C)cc2)c(C(C)(C)CC)c1 | 127* | x | x | 106* | i | -3 | -6 | x
CCn1c(SCC(=O)Nc2ccccc2)nc2c1c(=O)n(C)c(=O)n2C | 8 | 4 | 2 | -2 | i | -9 | -15 | -12
CCc1cccc(OCC(=O)Nc2ccc(S(=O)(=O)Nc3onc(C)c3C)cc2)c1 | 14 | 0 | 1 | -4 | i | 4 | 11 | -5
COc1ccc(C(=O)COC(=O)c2ccc(-n3cnnn3)cc2)c(OC)c1 | -14 | 12 | 3 | -11 | i | x | x | -18
CCN(CC)CC(O)COc1ccccc1C(=O)CCc1ccccc1 (stereo not drawn) | -27 | 0 | 1 | 1 | i | -9 | 2 | -9
C[C@H](CO)N1C[C@H](C)[C@@H](CN(C)Cc2cccc(O)c2)OCc2cnnn2CCCC1=O | -40 | 0 | 3 | x | x | x | x | -11&-9
O=S(=O)(NCCCN1CCOCC1)c1ccc(F)c(Cl)c1 | 6 | -2 | -8 | x | x | x | x | -10
Cc1nc2sccn2c(=O)c1S(=O)(=O)N1CCN(c2cccc(C(F)(F)F)c2)CC1 | 3 | -2 | -3 | -19 | i | -8 | 6 | -4
COc1cc(Cc2nccc3cc(OC)c(OC)cc23)c(NC(C)=O)cc1OC | 6 | 1 | 6 | -10 | i | 5 | 5 | 13

Remaining list, next part.
SMILES | HIV Env fusion | MT1-MMP act inh | MT1-MMP act inh RFP | CSC inhib | Rce1 inhib | eIF4H FP inh | PABP polyA inh | Yeast UUG start | others
CC(=O)Nc1nonc1-c1nc2ccccc2n1Cc1ccccc1 | -39 | 3 | 1 | 45 | i | 0 | -7 | 13
COc1ccc(C)cc1-n1nnnc1SCC(=O)c1cc(C)n(Cc2ccco2)c1C | -71 | -3 | -1 | 59 | x | 65* | 51* | -16
CC(C)(C)Nc1nc(N2CCCC2)nc(N2CCCC2)n1 | x | -7 | -9 | 21 | i | 6 | -11 | -10
CCn1c(CN2CCOCC2)nnc1SCC(=O)Nc1cccc(C)c1 | x | 2 | 3 | -6 | i | 0 | 2 | -1
COc1ccccc1NC(=O)CN1CCN(CC(=O)Nc2cc(NC(C)=O)ccc2OC)CC1 | x | 12 | -3 | -2 | i | -10 | 5 | -4
COC(=O)c1ccsc1NC(=O)CSc1nnnn1Cc1ccccc1 | x | -5 | -8 | -13 | i | 2 | 10 | -12
O=C(C1CCC(=O)N(C2CCCC2)C1)N1CCN(Cc2cccc(Cl)c2)CC1 (stereo not drawn) | -11 | -1 | 0 | -3 | i | -3 | -5 | -9
Cc1ccc2c(c1)c(-c1ccccc1)nc1nncn12 | -29 | -2 | -1 | 3 | i | -3 | -29 | -14
CC(C)(C)[C@H]1CCC(=O)N([C@H](CN=[N+]=[N-])Cc2ccccc2)CC1 | 7 | -7 | -5 | 2 | i | -10 | 10 | -15
O=S(=O)(/N=C(\c1ccc(Cl)cc1)N1CCOCC1)c1ccccc1 | 7 | -2 | 0 | -8 | i | 3 | 2 | x
CCn1c(-c2ccsc2)nc2c1c(=O)[nH]c(=O)n2Cc1ccccc1 | -49 | 8 | -4 | -18 | i | -5 | 1 | -20
O=c1cc(O)c(-c2ccc(Cl)c(Cl)c2)c(Cl)[nH]1 | -2 | -1 | 3 | 7 | i | 82* | 7.5* | -11 | eIF4H FP inh retest=80*;PABP polyA inh retest=75*
N#Cc1ccccc1NC(=O)c1cccc(COc2ccc(Cl)cc2Cl)c1 | -42 | -3 | -2 | 0 | i | -6 | -13 | -9
CC(=O)Nc1ccc(N2C(=O)CSC2c2ccc(F)cc2)cc1 (stereo not drawn) | -59 | 3 | 4 | x | i | 98* | 73* | -8
COc1ccc(-c2nn3c(-c4ccccc4)nnc3s2)cc1OC | -17 | 6 | 3 | 5 | i | -1 | 0 | -21
COc1cccc(NC(=O)CN(C)C(C)C(=O)Nc2ccc(S(=O)(=O)N3CCCC3)cc2)c1 (stereo not drawn) | -4 | 1 | 2 | -1 | i | 0 | -6 | x
CC(C(=O)NC1CC1)c1ncc(C(F)(F)F)cc1Cl (stereo not drawn) | 4 | 1 | 1 | 5 | i | 5 | -7 | x
O=[N+]([O-])c1ccc(CNCc2cc(Cl)ccc2O)cc1 | -15 | 2 | 3 | -2 | x | x | x | -2
Cc1cccc(OCC(=O)Nc2ccc(N3CCCC3)cc2)c1C | x | 0 | 2 | x | i | 13 | u | -19
CC(c1ccon1)N(C)C(=O)CCc1nnc(C2(c3ccc(Cl)cc3)CCC2)o1 (stereo not drawn) | -14 | 3 | -2 | -5 | i | -5 | 2 | x
CCCCCn1c(=O)c(C(=O)c2ccccc2)nc2ccccc21 | -41 | 0 | -2 | -6 | i | -14 | 65* | -1
Brc1ccc(-c2nnc3n2-c2ccccc2CC3)cc1 | 10 | -1 | -1 | -8 | i | -2 | 4 | 16
Cc1c(C(=O)NCCC#N)sc(=O)n1Cc1ccccc1F | -18 | 5 | 2 | x | x | x | x | -8
CC(=O)c1cnn(-c2ccc(Cl)c(Cl)c2Cl)c1C | 8 | 4 | -9 | 2 | i | 0 | 0 | -12
CCCN(CCC)CCNC(=O)C1CC(=O)N(c2ccc(OC)cc2)C1c1ccc(OC)cc1 (stereo not drawn) | -24 | -1 | 0 | -7 | i | -2 | -1 | 3

More entries.
SMILES | HIV Env fusion | MT1-MMP act inh | MT1-MMP act inh RFP | CSC inhib | Rce1 inhib | eIF4H FP inh | PABP polyA inh | Yeast UUG start | others
COc1ccccc1N(C(=O)CNC(=O)c1ccco1)C(C(=O)NC1CCCCC1)c1ccncc1 (stereo not drawn) | -1 | -4 | -2 | x | i | -8 | 3 | 1
CCOC(=O)CC(NS(=O)(=O)c1ccc(OC)c(OC)c1)c1cccc([N+](=O)[O-])c1 (stereo not drawn) | -12 | -5 | 2 | -8 | i | 7 | 15 | 4
COCOc1cccc(CN2CCC(C)(Oc3ccc(SC)cc3)C2)c1 (stereo not drawn) | i | 4 | -2 | x | x | x | x | -19
O=C1CCN=C(Nc2ccc(F)cc2)N1Cc1ccccc1 | -55 | -6 | -1 | x | i | 0 | 35 | -4
CC(C)c1ccc(C(=O)NCCCN2CCN(CCCNC(=O)c3ccc(C(C)C)cc3)CC2)cc1 | 18 | 3 | -4 | -3 | i | -3 | 9 | x
O=S(=O)(/N=C(/Nc1cccc2ccccc12)c1ccccc1)c1ccc(Br)cc1 | 6 | 0 | -2 | 0 | i | x | x | -12
COc1cc(/C=N/Nc2nncn2/N=C/c2ccc(O)c(OC)c2)ccc1O | -54 | 3 | 5 | -4 | x | -2 | -12 | x
C=CCC(NC(C)c1ccccc1)c1ccco1 (stereo not drawn) | -17 | 0 | 0 | -11 | i | 2 | 0 | -4
COc1ccccc1CN1CC(C(=O)N2CCC(C(=O)c3ccccc3)CC2)CCC1=O (stereo not drawn) | -9 | 4 | -5 | 21 | i | -12 | -3 | -8
COc1cccc(CNCc2ccccc2Br)c1OC | -39 | 2 | -1 | -13 | i | 17 | 11 | -17
CCc1ccc(S(=O)(=O)N2CCN(C(=O)c3cccnc3)CC2)cc1 | -6 | 2 | 0 | x | i | 6 | -1 | -8
O=C(c1nc2ccccn2c1CNCC1OCCc2ccccc21)N1CCOCC1 (stereo not drawn) | -4 | 2 | 4 | -12 | i | 4 | 8 | -15
CCN(C(=O)CCS(=O)(=O)c1ccc(Br)cc1)c1ccc2c(c1)OCO2 | x | -3 | -5 | 10 | x | 3 | 13 | 2
O=C(CN1C(=O)c2cccc3cccc(c23)C1=O)N1CCN(Cc2ccc3c(c2)OCO3)CC1 | x | -3 | -5 | 33 | i | 4 | 8 | -22
COc1ccc(-n2c(SCCC(=O)O)nnc2-c2ccncc2)cc1 | x | -2 | 0 | -7 | i | 4 | 8 | -17
CC(C)(C)c1ccc(-c2nc(O)c(CC(=O)O)s2)cc1 | x | x | x | -3 | i | -3 | 13 | x
CCNC(=O)COc1cccc(C(=O)NCc2ccccc2)c1 | -12 | -1 | -1 | -19 | i | 5 | 0 | x
COC(=O)c1ccc(CNC(=O)c2ccc(OC)c(S(=O)(=O)NC3CC3)c2)cc1 | -4 | 0 | 8 | x | x | x | x | -8
Cc1ccc(C(C(=O)NC2CCCC2)N(C(=O)Cc2cccs2)c2ccc3c(c2)OCCO3)cc1 (stereo not drawn) | x | -26 | -19 | 26 | i | 6 | 12 | 1
